# Methyltransferases – Primary Screen for Target Class Profiling of Small Molecule Inhibitors of Methyltransferases; actives 3.9% (n = 25,000); purified enzyme, MTase-Glo SAH luminescence; stronger effect = lower value; AID 1745853, 2022; calls only at 40 µM; active = -50% or lower on at least one of six enzymes; inconclusive = the cases between; inactive = as a rule above -30% on all six;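 also: enzymes were COMT GAMT GNMT HNMT NNMT and PNMT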
#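 Each enzyme was reacted with SAM and its substrate, with compounds tested once at 40 uM; SAH formed was read by MTase-Glo luminescence.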
# Calls only; i = inactive; ? = inconclusive; + = active, no number; ! = repeats disagree. % is scaled to controls: 0 for no effect and ±100 for the full control effect.
SMILES,Methyltransferases
CC(C)(Cc1nc(-c2ccc(O)cn2)no1)C(=O)NC1=C(C(=O)O)CCCC1,i
O=C(Nc1ccc2[nH]nc(-c3ccncc3)c2c1)[C@@H]1CCN(CC(=O)N2CCN(c3ccc(-c4ncccn4)cc3)CC2)C1,?
O=C(O)[C@H](Cc1ccccc1)Oc1ccc(-c2ccccc2)cc1,i
Cc1c(F)cc(C(=O)NC2CC2)cc1-c1ccc(C(=O)NCC(C)(C)C)cn1,i
CCNC(=O)NCCCOc1cccc(CN2CCCCC2)c1,i
COc1ccncc1C(=O)NC(=O)Nc1ccc(-c2ccccc2)c(C(F)(F)F)c1,i
O=C(NCc1cccc(O)c1)c1cc2cc(F)ccc2[nH]1,i
CS(=O)(=O)c1ccc(-c2cnc(N)c(C(=O)Nc3ccccc3)n2)cc1,i
CCn1c(-c2nonc2N)nc2cncc(C(=O)N3CC[C@H](N)C3)c21,?
CNC(=O)c1nn(C)c2c1C(C)(C)Cc1cnc(Nc3ccc(N4CCN(C)CC4)cc3)nc1-2,?
Cc1cccc(-c2nn3c(c2-c2ccnc4ccc(C(N)=O)cc24)CCC3)n1,i
O=C(O)[C@@H]1C[C@H]2C[C@@H](CCc3nn[nH]n3)CC[C@H]2CN1,i
O=c1c2cccnc2n(-c2cccc([N+](=O)[O-])c2)c(=O)n1Cc1ccncc1,i
N[C@H]1CN(c2c(F)cc3c(=O)c(C(=O)O)cn(C4C[C@@H]4F)c3c2Cl)CC12CC2 (stereo partly specified),i
CC(C(=O)O)c1ccc2c(c1)CC(=O)c1ccccc1S2 (stereo unspecified),i
Cc1c(CN2CCN(C(=O)[C@H](C)O)CC2)sc2c(N3CCOCC3)nc(-c3cnc(N)nc3)nc12,?
CC[C@H](CO)Nc1nc(NCc2ccc(-c3ccccn3)cc2)c2ncn(C(C)C)c2n1,?
C1COC(NC(C2CC2)C2CC2)=N1,i
CC(C)c1cc(-c2n[nH]c(=O)n2-c2ccc3c(ccn3C)c2)c(O)cc1O,+
CNC(=O)Nc1ccc(OC)c(NC(=O)NC(=O)c2cc(F)c(F)cc2Cl)c1,i
Cc1cccc(CNC(=O)C2(C)Cn3cnc(C(=O)NCc4ccc(F)cc4)c3C(=O)N2C2CC2)c1 (stereo unspecified),i
COc1cccc(Nc2ncnn3ccc(CN4CC[C@@H](N)[C@H](O)C4)c23)c1,i
CCC(CC)n1ccc2c(C(=O)NCc3c(C)cc(C)[nH]c3=O)cc(C#N)cc21,?
Cc1cc2c(F)c(Oc3ncnn4cc(OC[C@@H](C)OC(=O)[C@H](C)N)c(C)c34)ccc2[nH]1,?
COc1ccc(OC)c(-c2ccc(NC(=O)c3ccncc3F)cc2)c1,i
N[C@@H](CC(=O)N1CCn2c(nnc2C(F)(F)F)C1)Cc1[nH]nc2c(F)c(F)ccc12,i
O=C(CC12CC3CC(CC(C3)C1)C2)Nc1cccc2nc(NCCNCCO)ccc12,i
O=c1[nH]c2cccc(N3CCN(Cc4ccc(-c5ccccc5)cc4)CC3)c2o1,?
CNc1nc(C)nc(N[C@H]2CCC[C@@H](C(=O)NCc3ccc(C#N)cc3C(F)(F)F)C2)n1,i
CC[C@@H](C)[C@H](N)C(=O)N1Cc2ccccc2C1,i
c1ccc(Nc2nc3c(s2)CCCc2[nH]ncc2-3)nc1,i
CCNC(=O)Nc1ccc(-c2nc3c(c(N4CCOC[C@@H]4C)n2)CCN(c2ncccn2)C3)cc1,i
CN(C)CCCC1(c2ccc(F)cc2)OCc2cc(C#N)ccc21 (stereo unspecified),+!
CC(C)(O)CC(=O)NCCn1ccc2ncnc(Nc3ccc(Oc4cccc(C(F)(F)F)c4)c(Cl)c3)c21,?
Cn1c(CNc2ccc(C(=N)N)cc2)nc2cc(C(=O)N(CCC(=O)O)c3ccccn3)ccc21,+
O=C(Nc1ccnc(NC(=O)C2CC2)c1)c1c(Cl)cccc1Cl,i
CC1(C)CNc2cc(NC(=O)c3cccnc3NCc3ccncc3)ccc21,?
CC(C)COc1ccc(CNC(=O)N(Cc2ccc(F)cc2)C2CCN(C)CC2)cc1,i
COc1cn(-c2ccc(-n3cccn3)cc2F)nc(-c2ccnn2-c2ccccc2)c1=O,i
NOCC(=O)O,i

# The closing two entries of the part before open the next one.
SMILES,Methyltransferases
COc1cn(-c2ccc(-n3cccn3)cc2F)nc(-c2ccnn2-c2ccccc2)c1=O,i
NOCC(=O)O,i
Cc1cc(C)c(CNC(=O)c2cc(-c3ccc(CN4CCOCC4)cc3)cc3c2cnn3C2CCCC2)c(=O)[nH]1,?
CCCC(N[C@@H](C)C(=O)N1[C@H](C(=O)O)C[C@@H]2CCCC[C@@H]21)C(=O)OCC (stereo partly specified),i
COc1ccnc2[nH]cc(C(=O)C(=O)N3CCN(C(=O)c4ccccc4)C[C@H]3C)c12,?
c1cnc2cc3c(cc2n1)C1CNCC3C1,i
O=C(NCCCNc1nc(Nc2cccc(CN3CCOCC3)c2)ncc1C1CC1)C1CCC1,+
CNC1CCC(N(Cc2cccc(-c3ccncc3)c2)C(=O)c2sc3ccccc3c2Cl)CC1 (stereo unspecified),+
COc1ccc(NC(=O)N2CCc3c2ccc2ccccc32)cc1N1CCN(C)CC1,i
O=C1COc2nccc(-c3ccccc3F)c2CN1Cc1cc(C(F)(F)F)cc(C(F)(F)F)c1,i
O=C(NC1CCOCC1)c1ccc(-c2cc(-c3cn[nH]c3-c3ccccn3)ccn2)cc1,i
c1cc(-c2cnn3cc(-c4ccc(N5CCNCC5)cc4)cnc23)c2cccnc2c1,i
CCc1cccc(CC)c1NC(=O)N1Cc2[nH]nc(NC(=O)c3ccc(N4CCN(C)CC4)cc3)c2C1,?
CN1CCN(c2ccc(OC(F)(F)F)c(Nc3ncc4c(n3)-c3c(c(C(N)=O)nn3CCO)CC4)c2)CC1,i
O=C(O)c1cccnc1Nc1cccc(C(F)(F)F)c1,i
COc1nccc(-c2c(-c3ccc(F)cc3)ncn2C2CCC(O)CC2)n1 (stereo unspecified),?
COc1ccc(-n2c(SCC#N)nc3sc4c(c3c2=O)CCCC4)cc1,i
CCCN1CCN(c2ccc(C(=O)NC3(C(=O)NCC#N)CCCCC3)cc2)CC1,i
Cc1cc(Nc2nc(N[C@@H](C)c3ncc(F)cn3)ncc2Cl)n[nH]1,?
CC(C)(F)C[C@H](N[C@@H](c1ccc(-c2ccc(S(C)(=O)=O)cc2)cc1)C(F)(F)F)C(=O)NC1(C#N)CC1,?
Cc1cnc(Nc2ccc(CN3CCOCC3)cc2)nc1Nc1cccc(S(=O)(=O)NC(C)(C)C)c1,+
Nc1nc(Nc2ccc3c(c2)CC[C@@H](N2CCCC2)CC3)nn1-c1cc2c(nn1)-c1ccccc1CCC2,?
O=C(Nc1cc(-c2ccccc2)nn1-c1ccccc1)c1ccc([N+](=O)[O-])cc1,i
COc1cc(Oc2ccnc3cc(OC)c(OC)cc23)ccc1NC(=O)NC(C)c1nccs1 (stereo unspecified),?
CNC(=O)c1c(F)cccc1Nc1nc(Nc2cc3c(cc2OC)CCN3C(=O)CN(C)C)nc2[nH]ccc12,i
CCOC(=O)[C@H](CCc1ccccc1)N[C@H]1CS[C@H](c2cccs2)CN(CC(=O)O)C1=O,?
C[C@H](NCc1ccc(OCc2cccc(F)c2)cc1)C(N)=O,?
O=C1N=C(N2CCOCC2)CN1c1ccc(Cl)cc1,i
Cc1c(C)n(Cc2ccc(-c3ccccc3C(=O)O)cc2)c2ccc(C(=O)N[C@@H](C)c3ccc([N+](=O)[O-])cc3)cc12,+
Cc1ccc(=O)n(-c2ccccc2)c1,i
O=C(Nc1ccn(Cc2ccc(O)cc2C(F)(F)F)n1)c1c(F)cccc1F,i
Cn1cc(S(C)=O)c(=O)c2ccc(F)cc21 (stereo unspecified),i
CCOc1cc2ncc(C#N)c(Nc3ccc(OCc4ccccn4)c(Cl)c3)c2cc1NC(=O)/C=C/CN(C)C,i
Fc1ccc(-c2nc(-c3ccccc3F)[nH]c2-c2ccncc2)cc1,i
COc1ccc(-c2cc3nccn3c(Nc3ncccc3C(N)=O)n2)cc1OC,i
Cc1ccc(NC(=O)C2(c3ccc4c(c3)OC(F)(F)O4)CC2)nc1-c1cccc(C(=O)O)c1,i
CC[C@@H](Nc1c(Nc2cccc(C(=O)N(C)C)c2O)c(=O)c1=O)c1ccc(C)o1,i
C#Cc1cccc(Nc2ncnc3cc(OC)c(OCCCCCCC(=O)NO)cc23)c1,+
COc1ccnc(CCc2nc3ncccc3[nH]2)c1,i
Cc1ccc2c(Nc3ccc(Cl)cc3)nccc2c1Nc1ncccc1-c1ncnc2nc[nH]c12,?
CN1CCc2c(n(Cc3ccc(C(=O)NO)cc3)c3ccccc23)C1,+
Cc1cc2occ(CN(C)CCN(C)Cc3cn(-c4cccc(C(F)(F)F)c4)c4ccccc34)c(=O)c2cc1C,?

# 2 successive entries out of the list so far, quoted:
SMILES,Methyltransferases
O=C(Nc1cc(-c2ccccc2)nn1-c1ccccc1)c1ccc([N+](=O)[O-])cc1,i
COc1cc(Oc2ccnc3cc(OC)c(OC)cc23)ccc1NC(=O)NC(C)c1nccs1 (stereo unspecified),?

# The list goes on.
SMILES,Methyltransferases
CCOc1ccc(-n2c([C@@H](C)N(Cc3cccnc3)C(=O)Cc3ccc(OC(F)(F)F)cc3)nc3ncccc3c2=O)cc1,i
CC(=O)NCc1cccc(OC[C@@H](O)CNCCc2ccc(NS(=O)(=O)c3ccccc3)cc2)c1,i
CN(C)C(=O)c1ccc(S(=O)(=O)c2ccc(NC(=O)[C@@](C)(O)C(F)(F)F)c(Cl)c2)cc1,i
Cc1cncc2cccc(S(=O)(=O)N3CCCN(C(=O)CN)C[C@@H]3C)c12,i
CNC(=O)c1ccc(Nc2ncc(C(F)(F)F)c(NCc3nccnc3N(C)S(C)(=O)=O)n2)cc1,?
Cc1cnc(-c2cc(N3CCN(C(=O)CCS(C)(=O)=O)CC3)ncc2Cl)c(C)c1,i
Cc1cc(NC(=O)NCCN2CCC(O)(Cc3ccccc3)CC2)c2ccccc2n1,+
CCc1cc(Nc2nccc(-c3c(-c4ccc(OC)c(C(=O)Nc5c(F)cccc5F)c4)nc4ccccn34)n2)c(OC)cc1N1CCC(N2CCN(S(C)(=O)=O)CC2)CC1,+
Nc1ccc(-c2cccc3c(=O)cc(N4CCOCC4)oc23)cc1,?
O=C(Nc1cnc(Cl)nc1)c1ccc(F)c(F)c1,i
CCOC(=O)C1=Cc2ccc(C(F)(F)C(F)(F)F)cc2N=C(N)C1,i
CCOc1nc2c(N)ncnc2n1CC,i
C[C@]1(c2nc3c(C(N)=O)cccc3[nH]2)CCCN1,?
Nc1nccn2c(C3CCC(C(=O)O)CC3)nc(-c3cc4cccc(Cl)c4[nH]3)c12 (stereo unspecified),?
C[C@@H]1CCCN1CCc1cc2cc(-c3ccc(C#N)cc3)ccc2o1,?
COc1ccc(NC(=O)c2ccc(-c3ccc(-c4nnc(C)o4)cc3C)cc2)cc1N1CCN(C)CC1,i
CC(C)(C)c1ccc(C(=O)Nc2cn3cc(-n4ccnc4)ccc3n2)cc1,i
CNc1nc(Nc2cnn([C@H]3CCN(C4COC4)C[C@@H]3F)c2Cl)ncc1C(F)(F)F,i
CC(=O)Nc1ccc([C@H](C)C(=O)Nc2ncc(C(C)C)s2)cc1,?
CCOC(=O)[C@H](CCc1ccccc1)N[C@@H](C)C(=O)N1Cc2ccccc2C[C@H]1C(=O)O,?

# Pulled one by one from the list above (4):
SMILES,Methyltransferases
CC(C)(C)c1ccc(C(=O)Nc2cn3cc(-n4ccnc4)ccc3n2)cc1,i
CNC(=O)c1ccc(Nc2ncc(C(F)(F)F)c(NCc3nccnc3N(C)S(C)(=O)=O)n2)cc1,?
Nc1ccc(-c2cccc3c(=O)cc(N4CCOCC4)oc23)cc1,?
CCOC(=O)[C@H](CCc1ccccc1)N[C@@H](C)C(=O)N1Cc2ccccc2C[C@H]1C(=O)O,?

# Following part:
SMILES,Methyltransferases
O=C(Nc1ccc(Cl)cc1F)c1ccccc1O,i
COc1cccc(CN(C(=O)CC(C)(C)C)[C@H]2C[C@H](C(=O)N3CCNCC3)N(Cc3ccc4c(c3)OCO4)C2)c1,i
CCCC(Nc1nc(-c2ccc(NC(=O)NCC)c(OC)c2)ncc1C)c1cccnc1 (stereo unspecified),?
C[C@H]1Oc2cc(cnc2N)-c2c(nn(C)c2C#N)CN(C)C(=O)c2ccc(F)cc21,i
Cc1ccn(-c2ccc(-c3ncco3)cc2)c(=O)c1-c1ccc2nc(N)ncc2c1,i
O=C(c1cc2c(cc1F)OC(c1ccc(F)cc1)(c1ccc(Cl)cc1Cl)O2)N1CCOCC1 (stereo unspecified),?
CNC(=O)c1cc(Oc2ccc(NC(=O)c3cccc(C(F)(F)F)c3)cc2)ccn1,i
O=c1ccc2ccc(OCCCCN3CCN(c4cccc5sccc45)CC3)cc2[nH]1,?
COc1ccc(-c2csc(NC(=O)[C@H]3CCCCN3S(=O)(=O)c3ccc(C)cc3)n2)cc1,?
CN(C)CCC[C@]1(c2ccc(F)cc2)OCc2cc(C#N)ccc21,+
Cn1c(=O)cc(N2CCC[C@@H](N)C2)n(Cc2ccccc2C#N)c1=O,?
CC(=O)c1ccc2c(c1)[C@H](NC(=O)c1ccc(F)c(Cl)c1)[C@H](O)C(C)(C)O2,i
COc1ncc(Nc2ncc([C@@H](C)N3CCN(S(C)(=O)=O)CC3)cc2-c2nc(C)nc(N)n2)cc1F,i
CCCn1c(=O)c2[nH]c(-c3ccc(OCC(=O)O)cc3)nc2n(CCC)c1=O,i
C[C@@H](Nc1cc(NS(=O)(=O)N2CCC2)nc(SCc2cccc(F)c2F)n1)[C@@H](O)CO,i
O=C(COc1ccc(Cl)cc1)NC1CCC(NC(=O)COc2ccc(Cl)cc2)CC1 (stereo unspecified),?

# In the list so far, these have two or more sulfur atoms.
SMILES,Methyltransferases
COc1ccc(-n2c(SCC#N)nc3sc4c(c3c2=O)CCCC4)cc1,i
CCOC(=O)[C@H](CCc1ccccc1)N[C@H]1CS[C@H](c2cccs2)CN(CC(=O)O)C1=O,?
COc1ccc(-c2csc(NC(=O)[C@H]3CCCCN3S(=O)(=O)c3ccc(C)cc3)n2)cc1,?
C[C@@H](Nc1cc(NS(=O)(=O)N2CCC2)nc(SCc2cccc(F)c2F)n1)[C@@H](O)CO,i

# These rows are one share of the data; rates above refer to the full screens.
